Screening results (PubChem BioAssay)
ugtP null kill = growth inhibition of ugtP-null S. aureus, primary screen, RN4220 ugtP deletion, OD600; 16 h; some inactives read as strong as hits; growth inhibition, % (test concentration not listed); actives 0.54% (n = 330,000);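 active = z-score under -3 and OD600 up to 0.15 on both plates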;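 note: plate controls were untreated wells for no effect and antibiotic for full effect; wells of about 80 µL received 100 nL stock; the first replicate is given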
PrP 5UTR inh = inhibition of PrP 5' UTR reporter expression. cell-based PrP 5' UTR mRNA reporter, plate reader. actives 0.35% (n = 340,000). AID 488862, 2010. inhibition, % (test concentration not listed);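 active = every replicate at 50% or more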;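 note: 0 = median of the neutral control wells; tested in H4 reporter cells; numbers are from one replicate; inactives centre near -14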
BJeLR lethal = MLPCN primary cell-based screen for lethality selective to Ras in HRASV12 cells. BJeLR (HRASV12) viability, CellTiter-Glo ATP luminescence, 48 h; reference of the scale not given here. inhibition, % (test concentration not listed). actives 0.17% (n = 300,000). AID 1554, 2009;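 active = replicate mean above 50%; inconclusive = above 50% but judged a plate artefact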;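 note: 50 nL library stock added to about 25 µL; numbers are from one replicate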
Sa RN4220 lethal = growth inhibition of S. aureus RN4220, primary screen, OD600; 16 h; actives 0.33% (n = 330,000); inhibition, % (concentration not given with the values);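 active = z-score of -3 or lower and OD600 up to 0.18 on both plates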;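 note: plate controls were untreated cells for no effect and reference antibiotic for full effect; stock transfer was 100 nL into about 80 µL; one replicate is shown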
Autofluor counter = counter-screen for toxin protease inhibitors: compound fluorescence. compound autofluorescence counterscreen, microsphere flow cytometry; stronger effect = higher value. actives 3.1% (n = 360,000). AID 624483. fluorescence intensity (no concentration beside the values);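 active = at least 3 SD above the mean of all compounds, about 16000 in these data; inconclusive = too few beads counted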;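 note: 100 nL of 1 mM stock went into each well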
Mtb hypoxia rep = PubChem AID 1159583; M. tuberculosis hypoxia-regulated fluorescent reporter, fluorescence; fluorescence inhibition, % (concentration not given with the values); actives 0.1% (n = 300,000);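 active = 35 to 45% if threefold the growth effect, above 45% if 1.5-fold the growth effect; inactive = the rest, general growth blockers included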;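 note: wells of about 50 µL received 100 nL stock; 0% = vehicle wells and 100% = reference inhibitor wells; whole bacteria with a GFP reporter of the hypoxia response; strong numbers were not always called active; many hits fall short of the cut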
Mtb hypoxia rep growth = also measured in Mtb hypoxia rep; calls as there; growth inhibition, %; measured here: M. tuberculosis growth (absorbance);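 0% = vehicle and 100% = reference antibiotic; read after six days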
The depositor's hits bear a star; ? = inconclusive; · = no result given. Outcome played no part in choosing rows (roughly 3.9% active in at least one column).

SMILES	ugtP null kill	PrP 5UTR inh	BJeLR lethal	Sa RN4220 lethal	Autofluor counter	Mtb hypoxia rep	Mtb hypoxia rep growth
C/C(C=NNC(=O)c1cc(-c2ccncc2)nc2ccccc12)=C\c1ccco1	-1.1	·	·	3.7	·	-3.1	3.2
Cc1ccc(C)n1-c1nn(S(=O)(=O)c2cccc3cccnc23)c2cccc(F)c12	-9.7	-30.0	1.1	1.1	·	-5.2	-3.0
Cc1cc2nc(-c3ccc(SCC(=O)Nc4ccc5c(c4)OCCO5)nc3)[nH]c2cc1C	-1.0	-87.8	3.4	36.7	5370	0.6	9.3
Nc1c(C(=O)NCc2ccco2)c2nc3ccccc3nc2n1Cc1ccc(F)cc1	-17.5	41.3	-8.7	-11.5	3735	·	·
COc1ccc(-c2nc(Cn3c(SCc4ccccc4F)nc4ccncc43)c(C)o2)cc1	-4.6	-1.8	-2.2	-15.7	4629	3.9	16.4
CCc1ccc(-c2nc(CSCC(=O)NCc3ccco3)c(C)o2)cc1	-3.1	4.4	-8.8	-5.6	2932	-5.6	5.3
Cc1ccc(C(=O)N/N=C\c2ccncc2)s1	·	-36.7	-5.9	·	5098	·	·
S=C1NCCOCCOCCOCCN1	2.1	-20.3	-1.8	2.7	2688	·	·
CC(=O)N1CCc2c(sc(NC(=O)CN3C(=O)CCC3=O)c2C(N)=O)C1	5.7	-24.3	9.3	3.1	5769	1.9	13.6
Cc1cc2nc(CSc3ccc(Cl)cc3)cc(=O)n2[nH]1	1.2	-3.5	7.0	19.3	4342	-10.1	2.5
Cc1cc(OCCOCCNCc2ccccc2)ccc1C(C)C	-7.1	-20.3	5.4	1.9	4005	8.5	13.4
C/C(=N\NC(=O)c1cc(-c2ccc(O)cc2)nc2ccccc12)c1cccnc1	·	-0.7	-3.0	·	4531	·	·
O=C(NC(=S)NNC(=O)c1ccccc1[N+](=O)[O-])c1ccc(Br)cc1	-9.2	-18.0	0.3	25.9	3236	5.1	1.5
Cc1cccc(C)c1NC(=O)COC(=O)c1cc(-c2cccnc2)nc2ccccc12	-4.3	-16.3	-4.7	2.5	3645	-5.2	4.1
O=C(N/N=C/c1sc(N2CCOCC2)nc1-c1ccccc1)c1cccc(S(=O)(=O)N2CCCC2)c1	·	9.3	-3.0	·	5131	·	·
Cc1ccc(S(=O)(=O)NN=C2C3CC4CC(C3)CC2C4)cc1[N+](=O)[O-]	2.7	-3.9	-6.3	8.6	2042	6.8	-2.6
CC1N=C(N)C(c2nc3ccccc3n2C)=C1O (stereo not drawn)	1.7	-18.6	4.8	0.3	2175	3.3	17.5
O=C(COC(=O)COc1ccc(Br)cc1)NC1CCCC1	-0.8	-25.5	·	1.0	3914	3.7	1.1
Cc1ccc(CNC(=O)CSc2ncc(C(=O)Nc3ccccc3)c(=O)n2C)cc1	-5.8	-13.1	0.6	3.5	5744	7.0	-2.0
COc1ccccc1CNC(=O)CN1C(=O)NC2(CCOc3ccccc32)C1=O (stereo not drawn)	6.5	-15.2	·	6.8	·	15.7	5.8
Cc1cccc(N2CCN(C(=O)CCNS(=O)(=O)c3ccc4c(c3)oc(=O)n4C)CC2)c1C	3.1	-13.1	-3.4	0.0	·	-2.4	-2.3
CCCC(=O)Nc1ccc(C(=O)Nc2nnc(COC)s2)cc1	5.1	-31.2	2.4	6.2	8476	7.3	6.7
COc1ccc2[nH]c(C(=O)O)c(NS(=O)(=O)c3ccc(OC)c(OC)c3)c2c1	-8.6	-9.3	-8.8	6.6	4295	15.4	12.0
O=C(CCCCCNc1nc(=S)[nH]c2ccccc12)NCCc1ccc(Cl)cc1	7.3	-9.3	-2.5	2.4	4249	2.2	13.3
Cc1cccc(N(C)C(=O)CCS(=O)(=O)c2cc3c(cc2Cl)NC(=O)CO3)c1	3.4	-7.6	-0.7	9.0	4226	2.2	9.1

Arranged by molar mass (ascending): six of the compounds above
SMILES	ugtP null kill	PrP 5UTR inh	BJeLR lethal	Sa RN4220 lethal	Autofluor counter	Mtb hypoxia rep	Mtb hypoxia rep growth
CC1N=C(N)C(c2nc3ccccc3n2C)=C1O (stereo not drawn)	1.7	-18.6	4.8	0.3	2175	3.3	17.5
Cc1cc(OCCOCCNCc2ccccc2)ccc1C(C)C	-7.1	-20.3	5.4	1.9	4005	8.5	13.4
CCCC(=O)Nc1ccc(C(=O)Nc2nnc(COC)s2)cc1	5.1	-31.2	2.4	6.2	8476	7.3	6.7
O=C(COC(=O)COc1ccc(Br)cc1)NC1CCCC1	-0.8	-25.5	·	1.0	3914	3.7	1.1
COc1ccc2[nH]c(C(=O)O)c(NS(=O)(=O)c3ccc(OC)c(OC)c3)c2c1	-8.6	-9.3	-8.8	6.6	4295	15.4	12.0
O=C(CCCCCNc1nc(=S)[nH]c2ccccc12)NCCc1ccc(Cl)cc1	7.3	-9.3	-2.5	2.4	4249	2.2	13.3

Continuation:
SMILES	ugtP null kill	PrP 5UTR inh	BJeLR lethal	Sa RN4220 lethal	Autofluor counter	Mtb hypoxia rep	Mtb hypoxia rep growth
COc1ccc(NC(=O)CN(C)C(=O)c2ccc(NS(=O)(=O)c3ccc(C)c([N+](=O)[O-])c3)cc2)cc1	0.0	-19.8	-1.9	-0.8	?	-7.5	-11.3
COc1ccc(NCc2nnc(SCC(=O)Nc3nc(-c4ccccc4)cs3)n2-c2ccccc2)cc1	-8.0	2.9	19.8	3.2	2117	1.0	2.7
CCN(CC)c1ccc(C=NN2CCN(Cc3ccccc3)CC2)cc1	11.3	·	·	6.4	·	3.0	11.2
NNC(=O)C1=NOC(CNc2ncc(C(F)(F)F)cc2Cl)C1 (stereo not drawn)	-5.2	-3.8	6.8	3.0	3371	-9.1	1.1
CC(=CC=C(C#N)C#N)c1cc(C#N)c(N)o1	3.3	·	·	11.3	·	6.8	-0.2
O=C(N/N=C/c1ccccc1Cl)c1cccc(F)c1	·	-98.7	5.8	·	16940*	·	·
Cc1cc(C)cc(NC(=O)CCNS(=O)(=O)c2cc(Br)cnc2N)c1	6.4	-8.1	3.3	13.8	6066	6.4	-0.8
O=C(O)CCCCCN=Cc1c(O)c2ccccc2oc1=O	2.7	-5.1	8.1	8.1	4487	-3.5	5.5
Cc1ccc(C=NNc2nnc(Cc3ccccc3)c(=O)[nH]2)o1	-0.2	·	·	-0.9	·	8.6	4.4
COc1ccc(C(=O)OCC(=O)N2CCOCC2)cc1S(=O)(=O)N1CCOCC1	0.8	-5.4	·	2.8	?	-0.2	6.1
C=CC(COCc1ccccc1)N(Cc1ccccc1)S(=O)(=O)c1ccccc1Br (stereo not drawn)	2.0	-21.7	4.8	1.1	3353	-4.6	4.5
COc1ccc(-c2cc(C#N)nc(N3CCNCC3)n2)cc1	-32.2	-11.0	8.8	2.3	12638	9.6	15.1
CCOc1ccc(NC(=O)COC(=O)CSCC(=O)Nc2ccc(C)cc2C)cc1	10.1	-28.0	·	7.4	5387	6.2	4.8
COc1ccc(-c2cnc(N)n2CC2CCCO2)cc1 (stereo not drawn)	-7.7	-22.2	3.2	-3.5	3589	-3.6	-1.3
Oc1ccc(CCNc2c3ccccc3nc3ccccc23)cc1O	·	-22.7	26.1	·	4178	·	·
O=C(Nc1ccccc1)OCCNC(=O)c1cccc(Br)c1	-4.4	-13.0	4.0	1.7	3196	3.8	-4.9
O=C(CN1CCC(n2nnc3cc(C(F)(F)F)ccc32)CC1)NNC(=O)c1ccco1	-4.5	-5.3	5.8	2.5	2523	7.3	-3.7
COc1ccc(NCN2C(=O)C3C4C=CC(C4)C3C2=O)cc1 (stereo not drawn)	3.7	-32.2	-2.3	7.6	2332	8.8	-0.3
O=C(O)C1CCCN1C(=O)c1cccs1 (stereo not drawn)	-4.3	-10.8	-5.2	3.7	4033	10.5	3.8
[O-]/[N+](=C/c1ccco1)c1ccccc1	-1.4	-14.1	-1.4	-0.6	5420	1.1	-2.2
CCN(CC(=O)NCc1ccncc1)S(=O)(=O)c1ccccc1	-2.2	-15.5	2.2	1.6	3704	9.1	-7.3
Cc1ccc(-n2c(CCc3nc4ccccc4[nH]3)n[nH]c2=S)cc1	1.0	-12.0	3.4	5.2	3291	9.8	12.2
CC(/C=C1\SC(=S)N(NS(=O)(=O)c2ccccc2)C1=O)=C\c1ccccc1	-10.0	3.3	4.2	0.5	5297	-1.3	6.2
O=C(N/N=C\c1ccc(-c2ccc([N+](=O)[O-])cc2)o1)C1COc2ccccc2O1 (stereo not drawn)	·	-23.2	-1.0	·	2332	·	·
COc1ccc2cc3cc(C(=O)NCC4COc5ccccc5O4)oc3nc2c1 (stereo not drawn)	79.8	-9.0	-2.6	-4.4	3099	·	·

The listing continues:
SMILES	ugtP null kill	PrP 5UTR inh	BJeLR lethal	Sa RN4220 lethal	Autofluor counter	Mtb hypoxia rep	Mtb hypoxia rep growth
COc1ccc(-n2c(=O)[nH]cc(C(=O)N3CCc4ccccc43)c2=O)cc1	-2.9	-7.0	-0.4	8.6	6828	18.2	4.1
O=C(NN=Cc1ccc(Cl)cc1)c1cc(-c2cccnc2)nc2ccccc12	-3.4	·	·	-12.2	·	-11.5	16.4
O=C(CN1C(=O)c2ccccc2C1=O)NC1CCCCC1	5.7	-5.9	8.7	1.7	6061	-0.4	1.0
Cc1ccc(C)c(NC(=O)Cc2csc(-c3ccccc3)n2)c1	8.3	-14.4	1.4	2.5	2520	10.8	7.9
COCCNC(=O)c1onc(CSc2ccccn2)c1C(=O)NCCOC	-9.7	-8.0	2.9	1.7	3663	8.9	5.4
COc1ccccc1C(=O)Nc1nc2ccc(S(C)(=O)=O)cc2s1	-6.1	-18.2	-17.1	2.5	10699	-6.3	-8.8
O=C(NCC1CCCCC1)C1CCC(=O)N(CCc2cccc(F)c2)C1 (stereo not drawn)	0.3	-13.5	-0.6	2.3	5113	3.8	-0.4
Cc1cc(NC(=O)c2cccc(Oc3ccccc3)c2)n[nH]1	-14.4	-117.5	-0.8	1.0	4261	-3.1	-0.2
Cc1cc(OCC(=O)OCC(=O)NC2CCCCCC2)ccc1Cl	2.6	-12.3	·	3.9	8432	8.6	7.0
Cc1ccccc1CNS(=O)(=O)c1csc(C(N)=O)c1	-0.5	-3.9	-8.0	-1.0	5778	-3.4	13.3
CCC(C)Nc1nc2c(c(=O)n(C)c(=O)n2C)n1Cc1cccc(C)c1 (stereo not drawn)	-4.5	-26.1	8.6	3.7	2972	8.7	7.2
CCOC1OC(C(=O)N2CCN(C)CC2)=CC(c2ccc(Br)cc2)C1CCCO (stereo not drawn)	1.1	·	·	4.5	·	3.9	-4.3
COc1ccc(NC(=O)CS(=O)CC(=O)Nc2ccc(NC(C)=O)cc2)cc1 (stereo not drawn)	2.3	0.4	-13.2	3.6	4425	-16.7	-7.8
Cc1ccc(S(=O)(=O)N(C)CCN(C)S(=O)(=O)c2ccc(C)cc2)cc1	14.1	-8.7	·	7.3	3215	5.9	7.0
CCOC(=O)c1[nH]c2cc(OC)c(OC)cc2c1NC(=O)C(C)N1CCN(Cc2ccccc2)CC1 (stereo not drawn)	-13.7	-4.0	0.0	0.9	4580	·	·
O=C(O)c1cn(-c2ccc(F)cc2)c(=O)c2ccccc12	7.4	-23.2	-8.2	2.4	2532	8.3	3.7
Cc1cc2ncn(C(=O)c3c(-c4c(Cl)cccc4Cl)noc3C)c2cc1C	-6.4	-13.2	8.8	-2.4	4960	·	·
COc1cccc(NC(=O)c2ccc(N3C(=O)C4CCC(C)CC4C3=O)cc2)c1 (stereo not drawn)	-13.3	-2.2	-12.0	-4.0	5679	-8.1	6.8
O=C(CSc1nc(C2CC2)nc2ccccc12)N1c2ccccc2Sc2ccccc21	-3.1	-21.6	6.6	-4.8	22153*	-4.6	-3.7
COC(=O)C1=CN(Cc2ccc(C)cc2)C=C(C(=O)OC)C1c1cc(OC)c(OC)c(OC)c1	2.7	-6.6	1.1	-2.1	3790	7.8	17.6
COc1ccc(CCN/C=C2/CC(=O)NC2=O)cc1OC	5.2	-10.0	-12.3	-0.7	4407	·	·
Cc1ccccc1-c1ncc(CN2CCN(C3CCCCC3)C(CCO)C2)cn1 (stereo not drawn)	3.9	-12.7	9.5	2.8	6093	0.1	10.2
CCN(CCC(=O)Nc1cc([N+](=O)[O-])ccc1OC)Cc1ccccc1	-0.8	-11.7	2.0	2.7	2353	7.2	3.6
Cc1nc2ccc(NC(=O)COc3ccccc3C)cc2s1	7.3	14.4	-14.2	8.6	3360	8.1	12.5
O=C(CCc1ccccc1)N1CCCC1	3.6	-9.6	-3.5	2.5	4014	·	·
